High-throughput results: PubChem, National Center for Advancing Translational Sciences (NCATS)
Vif-APOBEC3G blk – qHTS for Inhibitors of Vif-A3G Interactions: qHTS. DNA dC->dU-editing enzyme APOBEC-3G (Homo sapiens), Q9HC16. HeLa A3G-eYFP + Vif (tagged APOBEC3G with the HIV-1 protein that degrades it), YFP fluorescence, overnight. Potency, µM (top dose mostly 46.1 µM), for the others: at the highest dose activity, negative = active, actives largely listed as inhibitors. hit rate 0.076% among 410,000;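 note: potency is the fitted concentration of half-maximal effect; % is set by controls: 0 for no effect and ±100 for the full control effect; nearly all actives have a fitted effect of over 60% in size; hits raise eYFP signal because A3G escapes Vif-driven loss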
Target sequence (Q9HC16 whole entry, looked up): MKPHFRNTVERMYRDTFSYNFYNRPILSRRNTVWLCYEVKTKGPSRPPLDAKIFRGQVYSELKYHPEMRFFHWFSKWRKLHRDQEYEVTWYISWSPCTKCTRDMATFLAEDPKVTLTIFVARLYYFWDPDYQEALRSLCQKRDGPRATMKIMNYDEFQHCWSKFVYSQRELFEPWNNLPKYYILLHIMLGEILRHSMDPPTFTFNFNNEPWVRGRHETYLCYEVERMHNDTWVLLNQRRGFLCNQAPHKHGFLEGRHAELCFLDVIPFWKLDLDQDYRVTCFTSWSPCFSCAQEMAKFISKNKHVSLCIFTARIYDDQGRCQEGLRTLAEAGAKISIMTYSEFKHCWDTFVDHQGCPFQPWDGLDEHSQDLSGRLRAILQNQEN
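Read-out is eYFP fluorescence (Ex 488/Em 500-530) from Vif-expressing HeLa A3G-eYFP cells; more signal means A3G escaped Vif-mediated degradation. Cells plated overnight, compound pinned in, incubated overnight at 37 deg C.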
RXFP1 ag – qHTS Assay for Agonists of the Relaxin Receptor RXFP1. HEK293T-RXFP1 cAMP TR-FRET, 30 min; response scale: percent of porcine relaxin response, buffer zero. AID 2676, 2010. Relaxin receptor 1 (Homo sapiens), Q9HBX9. Potency, µM (top dose mostly 57.5 µM), for the others: top-dose activation, usual class: activators. hit rate 0.3% among 370,000; note: potency is the fitted concentration of half-maximal effect; % is set by controls: 0 for no effect and ±100 for the full control effect; nearly all actives have a fitted effect of over 60% in size; many of its hits are not listed in these tables
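HEK293T cells stably expressing RXFP1 were pretreated with the PDE4 inhibitor Ro 20174, exposed to compounds for 30 min at 37C, lysed, and cAMP was read by TR-FRET. Data normalized to buffer (basal) and 29 nM porcine relaxin (100%).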
Vif-APOBEC3F blk – qHTS for Inhibitors of Vif-A3F Interactions: qHTS. hit rate 0.2% among 390,000. Potency, µM (highest dose often 46.1 µM), for inactives: at the top dose activity, negative = active. HeLa A3F-eYFP + Vif (tagged APOBEC3F with the HIV-1 protein that degrades it), YFP fluorescence increase; note: potency is the fitted concentration of half-maximal effect; % of control where 0% means no effect; nearly all actives have a fitted effect of over 65% in size
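HeLa cells stably expressing Vif plus C-terminally eYFP-tagged A3F were seeded, incubated overnight at 37 deg C, dosed with compound, incubated overnight again at 37 deg C. Yellow fluorescence (Ex 488/Em 500-530) reported blocked Vif-mediated A3F-eYFP degradation.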
GRP78 ERSR act – qHTS for Inducers of the Endoplasmic Reticulum Stress Response (ERSR) in Human Glioma: qHTS | hit rate 0.02% among 420,000 | AID 602332, 2012 | U87-MG GRP78 promoter luciferase reporter, 16 h | Potency, µM, for the others: at the highest dose activation, actives largely listed as activators; note: potency is the fitted concentration of half-maximal effect; series mostly up to about 76 µM; % of control where 0% means no effect; nearly all actives have a fitted effect of over 35% in size
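Stably transfected U87-MG glioma cells carrying a GRP78-based luciferase sensor; 16 h compound incubation. Luminescence end-point read 10 min after Bright-Glo addition at room temperature.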
LDHA inh – qHTS assay for inhibitors of human lactate dehydrogenase | purified LDHA, NADH/diaphorase-resazurin fluorescence; stronger effect = lower value | activity change, % (values are at about 110 or 230 µM) | L-lactate dehydrogenase A chain (Homo sapiens), P00338 | hit rate 0.15% among 480,000; in the data active = activity change below about -30%;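 note: plate controls were DMSO wells for no effect and wells without enzyme for full effect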
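LDH5 2 nM; NADH 0.06 mM, pyruvate 0.2 mM; 200 mM Tris pH 7.4, EDTA, Tween-20; 5 min RT. Detection: diaphorase 0.133 mg/mL + resazurin 37 µM, fluorescence ex540/em590 at 0 and 20 min; normalized to enzyme-free and DMSO wells.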
Starred values were filed as active, the others as inactive; / = not tested or not shown; & = joins results of further samples. Unless noted, calls come from the whole dose curve; as a rule, active = well fitted curve in the direction sought with a large enough effect; inconclusive = small, poorly fitted or top-dose-only effect, or another doubt; inactive = no such curve, though single readings can be large; an effect the other way counts as inactive or inconclusive. The list is partial (hit frequency here may not be typical).

1) CC(C)(C(=O)O)c1ccc(C(O)CCCN2CCC(C(O)(c3ccccc3)c3ccccc3)CC2)cc1 (stereo not drawn)
2) OC(COCc1cccs1)CN1CCN(c2ccccn2)CC1 (stereo not drawn)
3) O=C(O)COCCN1CCN([C@H](c2ccccc2)c2ccc(Cl)cc2)CC1
4) CCN(CC)CCNC(=O)c1cc(S(C)(=O)=O)ccc1OC
5) Oc1cc2c(cc1O)[C@@H](c1ccccc1)CNCC2

screen / no. | 1 | 2 | 3 | 4 | 5
Vif-APOBEC3G blk | -1% | 2% | 1% | -1% | 2%
RXFP1 ag | -1.2% | -0.3% | 0.2% | -0.5% | -0.3%
Vif-APOBEC3F blk | -1% | -8% | -4% | 0% | 2%
GRP78 ERSR act | -1%&-1%&-4%&-3% | -4% | -1% | -1%&-2%&-6%&-4% | -4%
LDHA inh | -7 | -10 | -5 | -6 | -3

Part of the list above in order of length of the SMILES, low to high:
2) OC(COCc1cccs1)CN1CCN(c2ccccn2)CC1 (stereo not drawn)
5) Oc1cc2c(cc1O)[C@@H](c1ccccc1)CNCC2
1) CC(C)(C(=O)O)c1ccc(C(O)CCCN2CCC(C(O)(c3ccccc3)c3ccccc3)CC2)cc1 (stereo not drawn)

screen / no. | 2 | 5 | 1
Vif-APOBEC3G blk | 2% | 2% | -1%
RXFP1 ag | -0.3% | -0.3% | -1.2%
Vif-APOBEC3F blk | -8% | 2% | -1%
GRP78 ERSR act | -4% | -4% | -1%&-1%&-4%&-3%
LDHA inh | -10 | -3 | -7

The listing continues.
6) CC(C)NCC(O)COc1cccc2ccccc12 (stereo not drawn)
7) CN1CCc2ccccc2Cc2[nH]c3ccccc3c2CC1
8) CCN1CCCC1CNC(=O)c1cc(S(N)(=O)=O)ccc1OC (stereo not drawn)
9) CCN(CC)CCOc1ccc(/C(=C(/Cl)c2ccccc2)c2ccccc2)cc1
10) O=C(CCC(=O)c1ccccc1)NCCc1c[nH]c2ccccc12
11) CN1CCc2cc(Cl)c(O)cc2[C@@H](c2ccccc2)C1

screen / no. | 6 | 7 | 8 | 9 | 10 | 11
Vif-APOBEC3G blk | 3% | -1% | -1% | -9%&-12% | 0% | 0%
RXFP1 ag | -1.1% | -0.7% | / | 0.0%&1.2% | 2.6% | -0.3%
Vif-APOBEC3F blk | 4% | 3% | 12% | 10%&6% | -8% | -6%
GRP78 ERSR act | -5%&-2%&-5%&-5%&-2% | -1%&-1%&-4% | -1%&0%&-4%&-5%&-3% | -4%&-4%&-8% | 1% | -3%&-2%&-6%&-6%
LDHA inh | -4 | -4 | -7 | 3&-7 | 0 | -3

Entries of single compounds, looked up by structure. Order of values: Vif-APOBEC3G blk	RXFP1 ag	Vif-APOBEC3F blk	GRP78 ERSR act	LDHA inh
CN1CCc2ccccc2Cc2[nH]c3ccccc3c2CC1 across the screens: -1%	-0.7%	3%	-1%&-1%&-4%	-4
CC(C)NCC(O)COc1cccc2ccccc12 (stereo not drawn) across the screens: 3%	-1.1%	4%	-5%&-2%&-5%&-5%&-2%	-4
OC(COCc1cccs1)CN1CCN(c2ccccn2)CC1 (stereo not drawn) across the screens: 2%	-0.3%	-8%	-4%	-10
CCN1CCCC1CNC(=O)c1cc(S(N)(=O)=O)ccc1OC (stereo not drawn) across the screens: -1%	/	12%	-1%&0%&-4%&-5%&-3%	-7
CC(C)(C(=O)O)c1ccc(C(O)CCCN2CCC(C(O)(c3ccccc3)c3ccccc3)CC2)cc1 (stereo not drawn) across the screens: -1%	-1.2%	-1%	-1%&-1%&-4%&-3%	-7
